ALR inh: inhibitors of human ALR sulfhydryl oxidase, primary screen, biochemical, H2O2 detection, HRP-luminol luminescence, single point; 3.8% of 290,000 active; inhibition, % (test concentration not listed); purified ALR, DTT oxidation; AID 485317, 2010;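 active means mean and each replicate at 75% or more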;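 further: stock transfer was 7.5 nL into about 7.5 µL; 0% = neutral wells and 100% = wells with inactivated enzyme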
Target sequence (P55789 whole entry, looked up): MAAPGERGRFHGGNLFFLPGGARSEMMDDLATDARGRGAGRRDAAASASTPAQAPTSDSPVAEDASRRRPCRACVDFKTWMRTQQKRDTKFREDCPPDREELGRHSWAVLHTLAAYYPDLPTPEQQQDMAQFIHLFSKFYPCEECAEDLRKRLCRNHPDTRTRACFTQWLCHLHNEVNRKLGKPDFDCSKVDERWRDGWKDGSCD
Ecoli growth: E. coli growth inhibition, primary screen, OD600; Escherichia coli growth, 23 h; active compounds read low; OD600 absorbance (concentration not given with the values); 0.21% of 330,000 active;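 active means OD600 absorbance below the run mean of sample wells minus 3.6 SD, in any replicate, cut at about 0.56 in these data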;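 further: stock transfer was 300 nL into about 60 µL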
B2AR ag: beta2AR agonists driving receptor internalization, primary screen, cell-based, FAP fluorogen, flow cytometry; Beta-2 adrenergic receptor (Homo sapiens), P07550; Am2.2-beta2AR cells; reference of the scale not given here; response, % (concentration not given with the values); 0.43% of 340,000 active;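 active means response above a set limit, near 3 SD of response in nonfluorescent compounds, cut at about 42% in these data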;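 further: stock transfer was 100 nL into about 11 µL; a reference agonist was the positive control; negative values mostly stem from fluorescent compounds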
FGF22 binding: binders of human FGF22 protein, primary screen, FGF22 synaptogenesis inhibitor project, biophysical, thermal shift, single point | Fibroblast growth factor 22 (Homo sapiens), Q9HCT0 | recombinant FGF22 thermal shift, SYPRO orange fluorescence; percent of sucrose octasulfate shift, DMSO zero | calls only at 9.99 µM | 1.5% of 340,000 active | AID 651658, 2012;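 active means melting point raised past a set limit in the mean and every replicate; three in four hits are not shown here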
Target sequence (Q9HCT0 whole entry, looked up): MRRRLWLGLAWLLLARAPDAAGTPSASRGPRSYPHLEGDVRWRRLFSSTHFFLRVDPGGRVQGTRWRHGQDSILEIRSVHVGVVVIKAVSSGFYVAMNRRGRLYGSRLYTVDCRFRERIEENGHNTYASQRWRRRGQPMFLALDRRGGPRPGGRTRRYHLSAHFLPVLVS
UCH37 inh: inhibitors of human UCH37 deubiquitinase, primary screen, biochemical, Ub-AMC cleavage, fluorescence. AID 588478, 2011. purified proteasome/UCH37. inhibition, % (no concentration beside the values). Ubiquitin carboxyl-terminal hydrolase isozyme L5 (Homo sapiens), Q9Y5K5. 0.33% of 330,000 active;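 active means mean of two replicates above 20%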;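 further: 0% = compound-free wells with enzyme and 100% = wells lacking proteasome; stock transfer was 100 nL into about 20 µL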
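assay system = human UCH37 enzyme supplied as purified proteasome complex | amount = proteasome at 0.15 nM in the dispensed enzyme solution | schedule = 30 min compound-proteasome preincubation then 25 min substrate reaction, room temperature | measured by = fluorescence, ex 355 nm, em 460 nm | benchmarks = no-proteasome wells (full inhibition) and compound-free wells (no inhibition)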
HNF4A DNA FP: change in binding of human HNF4A to DNA, primary screen, biochemical, fluorescence polarization, FITC-DNA | Hepatocyte nuclear factor 4-alpha (Homo sapiens), P41235 | 1 h | activity change, % at 10 µM | 0.3% of 360,000 active; in the data active means activity change above about 30%, passing the limit was not always enough;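 further: controls were the assay level and a saturating level of protein; the project sought stronger binding though the title names inhibitors; some compounds called inactive have numbers as strong as hits; positive values seem to mean higher polarization but the record does not say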
Target sequence (P41235 whole entry, looked up): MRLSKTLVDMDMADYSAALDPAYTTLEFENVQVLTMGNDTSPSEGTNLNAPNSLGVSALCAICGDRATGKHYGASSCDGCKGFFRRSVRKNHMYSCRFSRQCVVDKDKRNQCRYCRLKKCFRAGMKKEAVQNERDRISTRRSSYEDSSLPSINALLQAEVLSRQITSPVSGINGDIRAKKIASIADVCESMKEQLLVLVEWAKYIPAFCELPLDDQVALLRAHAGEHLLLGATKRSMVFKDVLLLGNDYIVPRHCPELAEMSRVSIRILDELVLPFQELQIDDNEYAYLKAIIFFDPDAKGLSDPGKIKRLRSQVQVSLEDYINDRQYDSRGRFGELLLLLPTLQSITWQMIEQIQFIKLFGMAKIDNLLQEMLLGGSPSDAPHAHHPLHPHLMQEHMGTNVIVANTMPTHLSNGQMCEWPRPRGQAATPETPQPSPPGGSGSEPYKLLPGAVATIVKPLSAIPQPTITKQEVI
rRNA inh HTS: reduced GFP signal of wild-type E. coli, primary screen, bacterial rRNA inhibitor project, GFP/RFP fluorescence, OD600, single point; E. coli WT GFP vs humanized-ribosome RFP mutants, 24 h; active compounds read low; DMSO median 0, no signal -100; GFP signal change (wild-type ribosome), % (no concentration beside the values); 1.6% of 350,000 active; AID 720706, 2013;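 active means significant combined selectivity score with lowered wild-type GFP, culture density cut under 30%, mutant RFP and density less affected; inactive means any of these conditions unmet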; further: one replicate is shown; some compounds called inactive have numbers as strong as hits
rRNA inh HTS OD600: recorded beside rRNA inh HTS, whose call it bears; OD600 change, %; measured here: OD600 growth;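 optical density of the mix in the first replicate; 0 = DMSO median and -100 = no signal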
rRNA inh HTS RFP: further read-out of rRNA inh HTS, marked with its call; RFP signal change, %; measured here: RFP humanized mutant strains;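 first replicate; 0 = DMSO median and -100 = no signal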
An asterisk follows results filed as active; i = inactive; · = not tested or not shown. This is a subset; count on the stated rates, not on these rows.

no.	molecule	rRNA inh HTS RFP	UCH37 inh	FGF22 binding	HNF4A DNA FP	B2AR ag	Ecoli growth	ALR inh	rRNA inh HTS OD600	rRNA inh HTS
1	CN1CCc2c(sc3c2c(=O)n(-c2ccccc2)c2n[nH]c(=S)n32)C1	·	4.5	·	-0.5	-2	0.72	64	·	·
2	CSc1nc2ccc(NC(=O)CS(=O)(=O)c3ccccc3)cc2s1	1.7	·	i	1.8	·	·	·	-14	-4
3	O=C(OCc1nc2ccccc2[n+]([O-])c1C(=O)c1ccccc1)c1cccnc1	·	7.4	i	0.6	-17	0.72	-17	·	·
4	NS(=O)(=O)c1ccc(NCc2c(F)cccc2Cl)cc1	·	6.9	·	-1.9	8	0.63	·	·	·
5	CC1(C)C(=O)N(CCN2CCC(C(=O)c3ccc(F)cc3)CC2)c2ccccc21	·	1.4	i	0.1	-8	0.7	-36	·	·
6	COn1c(=O)c(-c2ccc(Cl)cc2)[n+]([O-])c2ccccc21	·	-2.9	·	2.1	-2	0.72	-12	·	·
7	COc1ccccc1C(=O)Nc1cc2c(cc1C(=O)O)OCCCO2	-1.5	5.5	i	0.4	1	0.72	·	-13	1
8	COc1cc(OC)cc(C(=O)OCC(=O)c2cc(C)n(CC3CCCO3)c2C)c1 (stereo unspecified)	0.6	2.2	i	-2.9	5	0.65	0	-27	-16
9	Cn1c(=O)c2cc(NC(=O)CCc3cccnc3)ccc2n1Cc1cccc(C(F)(F)F)c1	0.6	·	i	3.5	·	·	·	-7	-7
10	Cn1c(CN2CCOCC2)nnc1SCC(=O)NCCc1ccccc1	·	4.1	·	1.9	3	0.69	·	·	·
11	CSCCC(NC(=O)c1ccccc1Br)C(=O)Nc1ccc(C)cc1 (stereo unspecified)	-1.7	-0.1	i	3.5	-3	0.71	-3	4	9
12	CC(C)C(C(=O)NC1=NCCS1)c1ccc(Cl)cc1 (stereo unspecified)	0.6	·	i	-1.4	4	·	0	1	-2
13	CCn1c(Oc2ccccc2)nc2c1c(=O)n(C)c(=O)n2C	-1.0	2.4	i	0.5	-7	0.64	-14	-28	-13
14	Cc1onc(-c2ccccc2)c1C(=O)N1CCN(S(=O)(=O)c2ccccc2C(F)(F)F)CC1	-1.6	-2.3	i	0.7	0	0.7	1	10	4
15	CCc1nnc(NC(=O)COc2ccccc2[N+](=O)[O-])s1	-1.6	4.4	i	-4.4	7	0.65	-9	2	0
16	COc1cccc(C(C)(O)c2nc(-c3cc(F)cc(F)c3)cs2)c1 (stereo unspecified)	-18	·	i	-1.9	·	·	·	-78	-56
17	COc1ccc(/C=C2\Oc3cc(OCC(=O)N4CCC[C@H]4CO)ccc3C2=O)c(OC)c1	·	-7.6	·	19	-2	0.71	1	·	·
18	CCC(CC)NC(=O)CCCSc1nc2ccccc2[nH]1	-1.0	5.6	i	1.7	-18	0.71	-4	2	-3
19	COc1ccc(CNC(=O)CCNC(=O)c2ccco2)cc1OC	0.6	-1.0	i	-5.7	2	0.67	·	13	5
20	CC(=O)c1ccc(NC(=O)C2CC(=O)Nc3nc4ccccc4n32)cc1 (stereo unspecified)	-8.3	1.6	i	-5.0	-1	0.68	-5	7	11
21	O=C(C[C@@H]1C/C=C/CCCC(=O)O[C@H](c2ccccc2)CNC1=O)NCCO	-1.2	1.5	i	-3.2	-1	·	2	-3	-2
22	C/C(=N\N=C(N)N)c1ccc(Cl)cc1	·	·	·	-1.9	13	·	4	·	·
23	O=C(CN(Cc1cccs1)C(=O)CSc1nnc(COc2ccccc2)o1)NC1CCCCC1	·	-3.0	·	-1.5	11	0.76	-2	·	·
24	O=C(O)CCC(=O)N1N=C(c2ccc(Br)cc2)CC1c1ccc(Br)cc1 (stereo unspecified)	4.7	·	i	-2.6	4	·	-4	-58	-22
25	COc1ccccc1-c1cc(NC=O)c2ncc(-c3cccc(C(F)(F)F)c3)n2c1	8.4	·	i	4.4	·	·	·	-6	1
26	CC1Oc2ccc(C#N)cc2N(Cc2cccc(F)c2)C1=O (stereo unspecified)	-2.0	·	i	4.1	·	·	·	-3	-1
27	O=C(C1CCC1)N1CCN(c2ccccc2)CC1	-2.2	3.7	i	6.3	-1	0.7	66	5	7
28	COc1ccc(CC(=O)OCC(=O)Nc2c(C)n(C)n(-c3ccccc3)c2=O)cc1	·	-2.2	·	-4.8	-4	0.75	-25	·	·
29	FC(F)(F)c1cccc(-c2nc3nc(Cl)c(Cl)nc3[nH]2)c1	-17	·	·	15	13	·	9	-79	-48
30	CCN(CC(=O)NCc1ccc(F)cc1)CC(O)COCc1cccc(OC)c1 (stereo unspecified)	·	1.7	·	-0.6	0	0.71	-16	·	·
31	Cc1cc[n+]2c3c(cccc13)CCC2	·	-70	·	0.9	-3	0.74	-25	·	·
32	CCc1ccc(NC(=O)CN(c2ccccc2)S(=O)(=O)N(C)C)cc1	-3.7	1.3	i	-7.5	6	0.72	-12	-28	-27
33	COc1cccc(NC(=O)NCCN2CCCCC2)c1	1.5	4.7	i	-1.7	-220	0.7	-18	16	21
34	Cc1ccc(-c2nc(C)sc2CC(=O)O)cc1	·	3.2	·	0.2	0	0.69	99*	·	·
35	COc1ccccc1/C=C(/C(=O)OCC(=O)N(C)Cc1ccccc1)c1ccccc1	·	1.4	·	2.3	3	0.71	-1	·	·
36	CC1CC(C)(C)NC(=S)N1CC(=O)NCc1ccc(Cl)cc1 (stereo unspecified)	-5.0	0.7	i	-1.2	1	0.68	1	-3	6
37	CCOc1cc(S(=O)(=O)N2CCN(S(=O)(=O)CC)CC2)c(OCC)cc1-n1cnnn1	2.6	-52	i	3.1	-8	0.64	1	7	18
38	O=C(O)c1ccc(-n2nnnc2Oc2cccc3cccnc23)cc1	·	1.3	·	-2.9	-8	0.69	-6	·	·
39	Cc1ccc(NC(=O)c2nnn(-c3cc(C)cc(C)c3)c2N)cc1	·	2.2	·	-6.8	4	0.68	-4	·	·
40	COc1ccc([N+](=O)[O-])cc1NC(=O)c1cn(-c2ccc(C)c(C)c2)c(=O)c2ccccc12	·	4.9	i	1.3	-9	0.71	-17	·	·
41	COc1cc(/C=C/C(=O)OCC(=O)Nc2ccc3[nH]c(=O)[nH]c3c2)ccc1OC(F)F	0.3	·	i	4.0	·	·	·	19	8
42	COc1ccccc1C(=O)OCCNC(=O)Cn1cnc2c1c(=O)n(C)c(=O)n2C	-8.4	-0.7	i	4.0	2	0.7	-14	9	7
43	CC(OC(=O)c1cc(=O)[nH]c2ccccc12)C(=O)c1ccccc1 (stereo unspecified)	0.0	·	i	1.1	8	·	-5	9	7
44	CCCn1c(SC(C(=O)Nc2cc(C)ccc2OC)c2ccccc2)nc2ccccc2c1=O (stereo unspecified)	·	5.0	·	-0.8	3	0.71	-4	·	·
45	CCOc1c(S(=O)(=O)NC2CC(C)(C)NC(C)(C)C2)ccc(Cl)c1Cl	-0.3	2.7	i	8.1	-11	0.73	-4	-1	-3
46	COc1ccc(NC(=O)CSc2nnc3n2CCCCC3)cc1OC	0.8	·	i	-0.9	·	·	·	21	8
47	Cc1ccc(C(=O)NCC(=O)NCC(c2cccs2)N2CCOCC2)cc1 (stereo unspecified)	-1.4	-0.8	i	1.4	1	0.71	1	13	5
48	Cc1ccc(N2CCN(CCc3nc4cc(NS(C)(=O)=O)ccc4n3C)CC2)cc1	·	1.0	·	-0.6	3	0.65	57	·	·
49	Cc1ccc(CNC(=O)CN(C(=O)C2(C)CC(=O)N=C3C=CC=CN32)c2ccccc2)cc1 (stereo unspecified)	3.2	-404	i	2.9	4	0.67	-1	8	15
50	COc1ccc(OC)c(NC(=O)CS(=O)(=O)c2cn(CC(=O)N3CCOCC3)c3ccccc23)c1	1.5	4.7	i	-2.8	6	0.73	-64	2	8
51	CCOc1cc(S(=O)(=O)NCC2CCCO2)ccc1F (stereo unspecified)	0.0	1.3	i	3.6	-8	0.72	2	4	-4
52	O=S(=O)(c1ccc(F)cc1)N1CCN(C(=S)NCCc2ccccc2)CC1	0.6	7.5	i	4.5	-2	0.71	-19	-2	3

As a working copy, some entries already given:
no.	molecule	rRNA inh HTS RFP	UCH37 inh	FGF22 binding	HNF4A DNA FP	B2AR ag	Ecoli growth	ALR inh	rRNA inh HTS OD600	rRNA inh HTS
1	CN1CCc2c(sc3c2c(=O)n(-c2ccccc2)c2n[nH]c(=S)n32)C1	·	4.5	·	-0.5	-2	0.72	64	·	·
2	CSc1nc2ccc(NC(=O)CS(=O)(=O)c3ccccc3)cc2s1	1.7	·	i	1.8	·	·	·	-14	-4
3	O=C(OCc1nc2ccccc2[n+]([O-])c1C(=O)c1ccccc1)c1cccnc1	·	7.4	i	0.6	-17	0.72	-17	·	·
4	NS(=O)(=O)c1ccc(NCc2c(F)cccc2Cl)cc1	·	6.9	·	-1.9	8	0.63	·	·	·
5	CC1(C)C(=O)N(CCN2CCC(C(=O)c3ccc(F)cc3)CC2)c2ccccc21	·	1.4	i	0.1	-8	0.7	-36	·	·
6	COn1c(=O)c(-c2ccc(Cl)cc2)[n+]([O-])c2ccccc21	·	-2.9	·	2.1	-2	0.72	-12	·	·
7	COc1ccccc1C(=O)Nc1cc2c(cc1C(=O)O)OCCCO2	-1.5	5.5	i	0.4	1	0.72	·	-13	1
8	COc1cc(OC)cc(C(=O)OCC(=O)c2cc(C)n(CC3CCCO3)c2C)c1 (stereo unspecified)	0.6	2.2	i	-2.9	5	0.65	0	-27	-16
9	Cn1c(=O)c2cc(NC(=O)CCc3cccnc3)ccc2n1Cc1cccc(C(F)(F)F)c1	0.6	·	i	3.5	·	·	·	-7	-7
10	Cn1c(CN2CCOCC2)nnc1SCC(=O)NCCc1ccccc1	·	4.1	·	1.9	3	0.69	·	·	·
